Screening data (PubChem BioAssay)
UUG fidelity: modulators of yeast start codon fidelity, primary screen, whole organism, S. cerevisiae, single point, plate reader | S. cerevisiae UUG-firefly luciferase reporter, luminescence/redox ratio | activity score, % at 18.7 µM | 350,000 compounds, 0.13% hits | AID 602363, 2012;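 active means replicate mean at a twofold rise or more, about +100% in these data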;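 further: firefly luciferase made from a UUG start codon reports start codon fidelity; reporter light over untreated wells divided by growth signal over untreated wells; some hits fall short of that in this replicate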
The depositor's hits bear a star; & = joins results of further samples. A portion of the library; the hit share may differ from the screen's.

Start of the listing, in advance (2 entries):
How did C/C=C/c1ccc([C@H]2[C@H](CO)N[C@H]2CN(C)S(=O)(=O)c2ccccc2)cc1 do in these assays?
UUG fidelity: 0

How did O=C(c1cccnc1)N1C[C@H]2[C@@H](c3ccccc31)[C@H](CO)N2C(=O)C1CCCC1 do in these assays?
UUG fidelity: 8

Main list, previewed entries included:
How did C/C=C/c1ccc([C@H]2[C@H](CO)N[C@H]2CN(C)S(=O)(=O)c2ccccc2)cc1 do in these assays?
UUG fidelity: 0

How did O=C(c1cccnc1)N1C[C@H]2[C@@H](c3ccccc31)[C@H](CO)N2C(=O)C1CCCC1 do in these assays?
UUG fidelity: 8

Results for COCC(=O)Nc1ccc2c(c1)C(=O)N(C)C[C@@H](OC)[C@H](C)CN(C(=O)c1ccncc1)[C@@H](C)CO2 ?
UUG fidelity: -6

What do the screens show for `Cc1ccccc1-c1ccc([C@@H]2[C@H](CO)N3CCCCN(CC4CC4)C[C@@H]23)cc1`?
UUG fidelity: -3

How did CN(C)CC(=O)N1CCCCN2[C@@H](CO)[C@@H](c3ccc(-c4cccc(C(=O)N(C)C)c4)cc3)[C@@H]2C1 do in these assays?
UUG fidelity: -9

How did Cc1noc(C)c1NC(=O)Nc1ccc2c(c1)C(=O)N([C@H](C)CO)C[C@H](C)[C@@H](CN(C)Cc1ccc(C(=O)O)cc1)O2 do in these assays?
UUG fidelity: -1

What do the screens show for `CO[C@@H]1CN(C)C(=O)c2ccc(NC(=O)C3CCC3)cc2OC[C@@H](C)N(C(=O)Nc2ccc(C(F)(F)F)cc2)C[C@H]1C`?
UUG fidelity: -1

Results for C[C@@H]1CN([C@H](C)CO)C(=O)Cc2cc(NS(=O)(=O)c3ccccc3)ccc2O[C@@H]1CN(C)C ?
UUG fidelity: -2

How did C[C@H](O)C#Cc1ccc([C@H]2[C@H](CO)N3CCCCN(C(=O)c4ccc5c(c4)OCO5)C[C@@H]23)cc1 do in these assays?
UUG fidelity: 22

What do the screens show for `CNC[C@H]1Oc2ccc(NC(=O)NC(C)C)cc2CC(=O)N([C@H](C)CO)C[C@H]1C`?
UUG fidelity: -12

How did C[C@H](CO)N1C[C@H](C)[C@H](CN(C)Cc2ccc(Cl)c(Cl)c2)Oc2c(NC(=O)Nc3ccc(F)cc3)cccc2C1=O do in these assays?
UUG fidelity: 0

Results for CN1CCCCN2[C@H](CO)[C@@H](c3ccc(Br)cc3)[C@@H]2C1 ?
UUG fidelity: -7

What do the screens show for `CCCC(=O)Nc1ccc2c(c1)C(=O)N(C)C[C@H](OC)[C@H](C)CN(Cc1cccc(F)c1)[C@H](C)CO2`?
UUG fidelity: -3

What do the screens show for `C[C@H](CO)N1C[C@H](C)[C@H](CN(C)CC2CCCCC2)Oc2ccc(NC(=O)c3ccncc3)cc2CC1=O`?
UUG fidelity: -16

Results for Cc1ccc(S(=O)(=O)N2CC[C@@H]3[C@H]2c2cc(-c4cccc(C#N)c4)ccc2N(C)[C@H]3CO)cc1 ?
UUG fidelity: -16

How did C[C@H]1CN([C@@H](C)CO)C(=O)c2cccc(NC(=O)C3CCCCC3)c2O[C@@H]1CN(C)Cc1ccc2c(c1)OCO2 do in these assays?
UUG fidelity: 10

How did CCC(=O)N1C[C@H](C)[C@H](OC)CN(C)C(=O)c2ccc(NC(=O)c3ccc(F)cc3)cc2OC[C@H]1C do in these assays?
UUG fidelity: 1

How did COCC(=O)Nc1ccc2c(c1)C(=O)N(C)C[C@H](OC)[C@@H](C)CN(C(=O)c1cccnc1)[C@@H](C)CO2 do in these assays?
UUG fidelity: -13

Results for CS(=O)(=O)N(CC1CCC1)C[C@H]1N[C@@H](CO)[C@H]1c1ccccc1 ?
UUG fidelity: -15

What do the screens show for `C[C@H](CO)N1C[C@H](C)[C@H](CN(C)S(=O)(=O)c2ccc(C#N)cc2)OCc2ccccc2-c2c(n(C)c3ccccc23)C1=O`?
UUG fidelity: 7

What do the screens show for `O=C(C[C@H]1CC[C@H]2[C@@H](COC[C@@H](O)CN2C(=O)Nc2ccccc2)O1)NC1Cc2ccccc2C1`?
UUG fidelity: 4

Results for CN1c2ccc(-c3ccccc3F)cc2[C@@H]2[C@@H](CCN2C(=O)NC2CCCC2)[C@@H]1CO ?
UUG fidelity: -15

What do the screens show for `CO[C@@H]1CN(C)C(=O)c2ccc(NC(=O)c3ccc4c(c3)OCO4)cc2OC[C@@H](C)N(CC2CC2)C[C@@H]1C`?
UUG fidelity: 9

Results for CCNC(=O)C[C@@H]1CC[C@H]2[C@@H](COC[C@@H](O)CN2C(=O)Nc2c(C)noc2C)O1 ?
UUG fidelity: -17

Results for C/C=C/c1ccc([C@H]2[C@@H](CO)N3CCCCN(S(=O)(=O)c4ccc(F)cc4)C[C@@H]23)cc1 ?
UUG fidelity: 11

How did O=C(C[C@H]1CC[C@@H]2[C@H](COC[C@@H](O)CN2S(=O)(=O)c2ccc(Cl)cc2)O1)NCCN1CCCC1 do in these assays?
UUG fidelity: -4

Results for COCC(=O)N1C[C@@H](C)[C@@H](OC)CN(C)C(=O)c2cc(NC(=O)Nc3ccccc3)ccc2OC[C@@H]1C ?
UUG fidelity: 6

How did CO[C@@H]1CN(C)C(=O)c2ccc(NS(=O)(=O)c3ccc(C)cc3)cc2OC[C@@H](C)N(Cc2nccs2)C[C@H]1C do in these assays?
UUG fidelity: 2

What do the screens show for `CC(C)NC(=O)N(C)C[C@@H]1Oc2ccc(NC(=O)Nc3ccc4c(c3)OCO4)cc2C(=O)N([C@H](C)CO)C[C@H]1C`?
UUG fidelity: -2

Results for C[C@H](CO)N1C[C@H](C)[C@H](CN(C)S(=O)(=O)c2ccc(Cl)cc2)Oc2ccc(NC(=O)c3ccncc3)cc2C1=O ?
UUG fidelity: -3

How did C/C=C/c1ccc2c(c1)[C@H]1[C@H](CCN1C(=O)Cc1cccnc1)[C@@H](CO)N2C do in these assays?
UUG fidelity: 0

What do the screens show for `CO[C@H]1CN(C)C(=O)c2cc(NC(=O)C3CCCCC3)ccc2OC[C@H](C)N(C)C[C@@H]1C`?
UUG fidelity: -9

Results for C/C=C/c1ccc([C@@H]2[C@@H](CO)N3CCCCN(C(=O)Nc4ccc(F)cc4)C[C@H]23)cc1 ?
UUG fidelity: -1

What do the screens show for `CC(C)NC(=O)N1[C@H](CO)[C@@H]2c3ccccc3N(C(=O)c3ccccn3)C[C@@H]21`?
UUG fidelity: 13

Results for CN(C)CC#Cc1ccc([C@H]2[C@H](CO)N3CCCCN(C(=O)Nc4cc(F)ccc4F)C[C@@H]23)cc1 ?
UUG fidelity: -5

What do the screens show for `COCC(=O)N1C[C@@H](C)[C@@H](OC)CN(C)C(=O)c2ccc(NC(=O)NC(C)C)cc2OC[C@H]1C`?
UUG fidelity: 4

What do the screens show for `Cc1noc(C)c1NC(=O)Nc1ccc2c(c1)C(=O)N([C@H](C)CO)C[C@@H](C)[C@@H](CN(C)Cc1ccncc1)O2`?
UUG fidelity: -10

How did C[C@@H]1CN([C@H](C)CO)C(=O)c2c(c3ccccc3n2C)-c2ccccc2CO[C@@H]1CN(C)Cc1ccc(C(=O)O)cc1 do in these assays?
UUG fidelity: -9

What do the screens show for `CCC(=O)N1[C@H](CO)[C@@H](c2ccc(-c3ccc(F)cc3)cc2)[C@@H]1CN(C)C(C)=O`?
UUG fidelity: 4

What do the screens show for `C[C@@H]1CN([C@@H](C)CO)C(=O)c2cc(NC(=O)C3CCCCC3)ccc2O[C@@H]1CN(C)Cc1ccc(Cl)c(Cl)c1`?
UUG fidelity: -9

What do the screens show for `CO[C@H]1CN(C)C(=O)c2ccc(NC(=O)C3CC3)cc2OC[C@@H](C)N(CCC(F)(F)F)C[C@H]1C`?
UUG fidelity: 7

How did CC(=O)N(C[C@@H]1N[C@@H](CO)[C@@H]1c1ccc(-c2cccnc2)cc1)C1CCCC1 do in these assays?
UUG fidelity: -1&-2

Results for Cc1noc(C)c1NC(=O)N(C)C[C@H]1Oc2ccc(NC(=O)Cc3cn(C)c4ccccc34)cc2C(=O)N([C@H](C)CO)C[C@@H]1C ?
UUG fidelity: 10

How did C[C@H](CO)N1C[C@H](C)[C@@H](CN(C)S(=O)(=O)c2ccc(Cl)cc2)Oc2ccc(N(C)C)cc2CC1=O do in these assays?
UUG fidelity: 7

Results for CN(C)C(=O)C[C@@H]1CC[C@H]2[C@@H](COc3ccc(NC(=O)C4CC4)cc3C(=O)N2C)O1 ?
UUG fidelity: -9

How did COc1cccc(C(=O)Nc2ccc3c(c2)C(=O)N(C)C[C@@H](OC)[C@H](C)CN(CC2CC2)[C@H](C)CO3)c1 do in these assays?
UUG fidelity: 2

What do the screens show for `COc1ccc(C#Cc2ccc3c(c2)[C@@H]2[C@@H](CCN2S(=O)(=O)c2ccc(OC)cc2)[C@H](CO)N3C)cc1`?
UUG fidelity: -15

How did O=S(=O)(c1ccc(F)cc1)N1CCCCN2[C@@H](CO)[C@H](c3ccc(C#CC4CC4)cc3)[C@@H]2C1 do in these assays?
UUG fidelity: 29

What do the screens show for `O=C(C1CC1)N1CCCCN2[C@@H](CO)[C@@H](c3ccc(C#CC4(O)CCCC4)cc3)[C@@H]2C1`?
UUG fidelity: 12

How did O=C(C[C@@H]1CC[C@@H]2[C@H](COC[C@H](O)CN2Cc2cccc(Cl)c2)O1)N1CCOCC1 do in these assays?
UUG fidelity: -6

What do the screens show for `C[C@@H]1CN([C@@H](C)CO)C(=O)c2cccc(NS(C)(=O)=O)c2O[C@H]1CN(C)S(=O)(=O)c1ccc(Cl)cc1`?
UUG fidelity: 2

What do the screens show for `C[C@@H]1CN([C@H](C)CO)C(=O)c2cccc(NC(=O)c3ccncc3)c2O[C@H]1CN(C)C(=O)Nc1ccc(F)cc1`?
UUG fidelity: 1

What do the screens show for `COCCNC(=O)[C@H]1[C@H](CO)[C@H]2Cn3c(ccc(C4=CCCCC4)c3=O)[C@@H]1N2C(=O)C1CC1`?
UUG fidelity: 6

Results for O=C(NC[C@H]1[C@@H](c2ccccc2)[C@H](CO)N1C(=O)Cc1cccnc1)C1CC1 ?
UUG fidelity: -7

What do the screens show for `C[C@H](CO)N1C[C@H](C)[C@H](CN(C)Cc2ccc3c(c2)OCO3)Oc2ccc(NS(=O)(=O)c3cccs3)cc2C1=O`?
UUG fidelity: -5

How did CN(C)C(=O)c1ccc(-c2ccc3c(c2)[C@@H]2[C@@H](CCN2C(=O)c2cnccn2)[C@H](CO)N3)cc1 do in these assays?
UUG fidelity: -8

What do the screens show for `COc1cccc(-c2ccc3c(c2)[C@@H]2[C@@H](CCN2C(=O)CC2CC2)[C@H](CO)N3C)c1`?
UUG fidelity: 12

How did CN1C(=O)c2cc(NC(=O)C3CCCC3)ccc2OC[C@@H]2O[C@@H](CC(=O)O)CC[C@H]21 do in these assays?
UUG fidelity: -11

How did C[C@H]1CN([C@@H](C)CO)C(=O)c2cc(NC(=O)CCCN(C)C)ccc2O[C@H]1CN(C)C(=O)Nc1cccc2ccccc12 do in these assays?
UUG fidelity: 0

How did O=S(=O)(c1ccccc1F)N1CC[C@@H]2[C@H](CO)Nc3ccc(-c4ccccc4)cc3[C@@H]21 do in these assays?
UUG fidelity: -9

Of the compounds above, 3 have an aryl methoxy group.
How did COc1cccc(C(=O)Nc2ccc3c(c2)C(=O)N(C)C[C@@H](OC)[C@H](C)CN(CC2CC2)[C@H](C)CO3)c1 do in these assays?
UUG fidelity: 2

What do the screens show for `COc1ccc(C#Cc2ccc3c(c2)[C@@H]2[C@@H](CCN2S(=O)(=O)c2ccc(OC)cc2)[C@H](CO)N3C)cc1`?
UUG fidelity: -15

What do the screens show for `COc1cccc(-c2ccc3c(c2)[C@@H]2[C@@H](CCN2C(=O)CC2CC2)[C@H](CO)N3C)c1`?
UUG fidelity: 12

Continuation:
Results for O=C(C1CCCCC1)N1C[C@H]2[C@@H](c3ccccc31)[C@H](CO)N2Cc1ccccc1Cl ?
UUG fidelity: 0

How did O=C(C[C@@H]1CC[C@H]2[C@@H](COC[C@@H](O)CN2C(=O)c2cnccn2)O1)NCc1ccccc1 do in these assays?
UUG fidelity: -4

How did CCS(=O)(=O)N1CCCCN2[C@H](CO)[C@@H](c3ccc(C#Cc4ccccn4)cc3)[C@@H]2C1 do in these assays?
UUG fidelity: -8

How did C[C@H]1CN([C@@H](C)CO)C(=O)c2cc(NC(=O)CCC(F)(F)F)ccc2O[C@H]1CN(C)Cc1ccc(C(F)(F)F)cc1 do in these assays?
UUG fidelity: -7

How did O=C(C[C@@H]1CC[C@@H]2[C@H](COC[C@@H](O)CN2Cc2cccc(-c3ccncc3)c2)O1)N1CCN(c2ccccc2)CC1 do in these assays?
UUG fidelity: -7

How did Cc1cccc(S(=O)(=O)N(C)C[C@@H]2OCc3ccccc3-c3c(n(C)c4ccccc34)C(=O)N([C@H](C)CO)C[C@@H]2C)c1 do in these assays?
UUG fidelity: -13

Results for COCC(=O)N1C[C@@H](C)[C@H](OC)CN(C)C(=O)c2ccc(NC(=O)C3CCC3)cc2OC[C@H]1C ?
UUG fidelity: 33

How did CO[C@@H]1CN(C)C(=O)c2cc(NS(C)(=O)=O)ccc2OC[C@@H](C)N(S(C)(=O)=O)C[C@@H]1C do in these assays?
UUG fidelity: -3

Results for CC(C)NC(=O)Nc1cccc2c1O[C@H](CN(C)Cc1ccc(Oc3ccccc3)cc1)[C@H](C)CN([C@H](C)CO)C2=O ?
UUG fidelity: 1

How did O=C(c1ccccn1)N1C[C@@H]2[C@H](c3ccccc31)[C@@H](CO)N2C(=O)Nc1ccccc1Cl do in these assays?
UUG fidelity: 17

How did O=C(c1cccc(F)c1)N1C[C@H]2[C@@H](c3ccccc31)[C@H](CO)N2C(=O)c1cccc(F)c1 do in these assays?
UUG fidelity: 6

How did CCC(=O)N1CC[C@@H]2[C@@H](CO)N(C)c3ccc(-c4ccc(C#N)cc4)cc3[C@@H]21 do in these assays?
UUG fidelity: 4

How did CO[C@H]1CN(C)C(=O)c2ccc(NC(=O)Cc3ccccc3)cc2OC[C@H](C)N(C(C)=O)C[C@H]1C do in these assays?
UUG fidelity: 11

Results for C[C@@H]1CN([C@@H](C)CO)C(=O)c2cccc(NC(=O)c3cnccn3)c2O[C@H]1CN(C)C(=O)Nc1ccc2c(c1)OCO2 ?
UUG fidelity: 2
